Bioassay records deposited in PubChem BioAssay by several laboratories.
GALR2 ag: GALR2 receptor agonists, primary screen, cell-based. AID 803, 2007. activation, %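 (tested at 5 µM)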. GALR2-expressing cells, agonist activation read-out. 0.48% of 140,000 active;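 active means above mean plus 3 SD of all compounds, about 5% in these data, not always enough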;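 further: 0% = vehicle buffer wells and 100% = reference agonist at full effect; tested in CHO reporter cells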
Target sequence (O43603 whole entry, looked up): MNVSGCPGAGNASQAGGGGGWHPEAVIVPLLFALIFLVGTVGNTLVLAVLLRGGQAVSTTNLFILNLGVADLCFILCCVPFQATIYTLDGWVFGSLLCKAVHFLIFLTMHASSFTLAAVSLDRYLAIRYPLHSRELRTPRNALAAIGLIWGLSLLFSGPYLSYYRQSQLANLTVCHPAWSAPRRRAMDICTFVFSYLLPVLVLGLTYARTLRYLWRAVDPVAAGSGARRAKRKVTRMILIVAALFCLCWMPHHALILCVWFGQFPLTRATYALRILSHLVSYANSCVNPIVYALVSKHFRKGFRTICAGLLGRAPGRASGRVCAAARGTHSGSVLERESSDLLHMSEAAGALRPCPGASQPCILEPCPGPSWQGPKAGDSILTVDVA
RGS16-Gao HTS: modulators of RGS16 binding to Galphao, primary screen, biochemical, human proteins, multiplexed bead flow cytometry | Regulator of G-protein signaling 16 (Homo sapiens) + Guanine nucleotide-binding protein … | bead-based flow cytometry RGS16-Galphao binding, fluorescence; actives lie on both sides | binding response (% of control), % at 10 µM | 0.38% of 220,000 active;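 active means below 25% or above 175%, edge rows of some plates excepted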;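 further: Galphao activated by GDP with aluminum fluoride before binding; 100% = wells without compound and 0% = beads without RGS; some results beyond the cut were filed as inactive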
Target sequence (O15492 whole entry, looked up): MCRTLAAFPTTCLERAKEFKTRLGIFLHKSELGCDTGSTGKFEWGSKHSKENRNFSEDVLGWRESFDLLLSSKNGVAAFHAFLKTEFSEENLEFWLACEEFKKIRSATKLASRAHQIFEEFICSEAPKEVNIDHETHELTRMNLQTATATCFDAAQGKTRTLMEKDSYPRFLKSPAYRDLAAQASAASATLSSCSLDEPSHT
Target sequence (P09471 whole entry, looked up): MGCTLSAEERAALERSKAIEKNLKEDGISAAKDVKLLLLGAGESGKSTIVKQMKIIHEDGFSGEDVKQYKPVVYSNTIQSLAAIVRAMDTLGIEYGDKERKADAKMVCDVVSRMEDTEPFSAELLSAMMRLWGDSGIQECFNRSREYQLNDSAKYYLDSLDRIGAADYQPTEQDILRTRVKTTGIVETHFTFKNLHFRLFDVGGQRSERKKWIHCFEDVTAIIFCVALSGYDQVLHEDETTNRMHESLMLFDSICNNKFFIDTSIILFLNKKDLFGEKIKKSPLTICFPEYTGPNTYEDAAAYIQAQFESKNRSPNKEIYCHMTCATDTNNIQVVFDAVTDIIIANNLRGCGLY
HSV replic up: enhancers of HSV replication in host cells, fold increase, host cell viability | maximum fold increase | HSV replication augmentation in cells | 0.005% of 220,000 active;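 active means peak rise of 1.5-fold or more in the series; inconclusive means self-fluorescent or not available for retest; tested in PC3 cells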;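 further: first round at 10 µM; read as green reporter fluorescence; hits show the peak of a series up to 25 µM; 1 = signal of infected wells without compound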
INS promoter inh: inhibitors of insulin promoter-driven GFP, primary screen, imaging, TRM-6 cells (human fetal islet line), eGFP reporter, cell count | reporter expression induced with tamoxifen | inhibition, % at 2 µM | 0.9% of 130,000 active | AID 1273, 2008;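 active means inhibition above the mean plus 3 SD, with well images judged a real hit on visual review, cut at about 60% in these data, passing the limit was not always enough; inconclusive means inhibition over the cutoff but images rejected on review; inactive means inhibition not above the cutoff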
PKD1 kinase inh: inhibitors of human PKD1 kinase, biochemical, fluorescence polarization | 0.056% of 200,000 active | inhibition, %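 (about 10 µM by stock and volumes)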 | AID 797, 2007 | PKD1 kinase fluorescence polarization assay;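 active means inhibition of 50% or more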;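 further: controls were vehicle for no effect and a reference inhibitor for full effect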
INS promoter inh cell count: second read-out of INS promoter inh, no call of its own (marks repeat the call); normalized cell count, %; measured here: cell count, toxicity; reference of the scale not given here;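 cells exposed to compound for 48 h; stained nuclei by imaging scaled within each plate; lower means fewer cells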
HSV replic up primary fold: also measured in HSV replic up; calls as there; fold increase; compound at 10 µM; measured here: primary screen fold increase 10 uM; tested in PC3 cells;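 GFP signal in the first replicate; 1 = infected wells without compound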
Active calls of the source: *; i = inactive; ? = inconclusive; . = not tested or not shown.

Keys: A = GALR2 ag; B = RGS16-Gao HTS; C = HSV replic up; D = HSV replic up primary fold; E = INS promoter inh; F = INS promoter inh cell count; G = PKD1 kinase inh
1. CCc1cc(=O)[nH]c(SCc2ccc(C)cc2)n1
  A: .	B: 99	C: i	D: 0.96	E: .	F: .	G: -5
2. Cc1noc(NC(=O)c2ccc(Cl)c(Cl)c2)c1Cl
  A: .	B: 105	C: i	D: 0.98	E: 26	F: 120	G: -1
3. CCOCCSc1nnc2nc(C)cc(C)n12
  A: -3.0	B: 113	C: i	D: 1.1	E: -465	F: 40	G: 0
4. CCOc1ccc(NC(=O)Nc2ccc3c(c2)nnn3C)cc1
  A: -1.5	B: 101	C: i	D: 0.75	E: .	F: .	G: -8
5. Cc1cccc(NC(=O)CSc2nnc(C)n2Cc2ccccc2)c1
  A: -2.7	B: 105	C: i	D: 0.9	E: -33	F: 105	G: -6
6. O=C(O)c1ccccc1CSc1nc2ccccc2n1Cc1ccccc1C(=O)O
  A: .	B: 98	C: i	D: 1	E: .	F: .	G: -1
7. CC(C)(C)OC(=O)N1CCC(NC(=O)c2[nH]cnc2C(=O)N[C@@H](Cc2ccccc2)C(=O)OCc2ccccc2)CC1
  A: .	B: 129	C: i	D: 0.65	E: .	F: .	G: 10
8. Cn1nc(-c2ccc(C(=O)NCCO)cc2)c2ccccc2c1=O
  A: .	B: 114	C: i	D: 0.89	E: .	F: .	G: .
9. CCOC(=O)c1c(C)[nH]c(C(C)=O)c1C
  A: -0.8	B: 103	C: i	D: 0.92	E: .	F: .	G: -9
10. O=C(OCCCCN1C(=O)c2ccccc2C1=O)c1ccc(S(=O)(=O)N2CCCC2)cc1
  A: -1.2	B: 101	C: i	D: 1	E: 0	F: 111	G: -13
11. COC(=O)c1ccc(Sc2ccc(F)cc2)c(N)c1
  A: -0.1	B: 91	C: i	D: 1	E: 6	F: 134	G: -3
12. COc1cc(NC(=O)Cc2ccc(F)cc2)cc(OC)c1OC
  A: .	B: 101	C: i	D: 0.96	E: -7	F: 124	G: -9
13. Cc1cccc(N/C=C/C(=C(C#N)C#N)N(C)C)c1
  A: -1.5	B: 110	C: i	D: 1.1	E: -17	F: 97	G: -5
14. CCOc1cc(S(=O)(=O)N(CC)CC)c(OCC)cc1-n1cnnn1
  A: -1.3	B: 77	C: i	D: 0.97	E: -23	F: 206	G: 2
15. CCOC(=O)NC(=O)c1cn(Nc2ncc(C(F)(F)F)cc2Cl)c(=O)[nH]c1=O
  A: .	B: 105	C: i	D: 1.3	E: .	F: .	G: .

The results go on.
Keys: A = GALR2 ag; B = RGS16-Gao HTS; C = HSV replic up; D = HSV replic up primary fold; E = INS promoter inh; F = INS promoter inh cell count; G = PKD1 kinase inh
16. COc1ccc(N(C)S(=O)(=O)c2cccc(C(=O)NCC3CCCCC3)c2)cc1
  A: .	B: 158	C: i	D: 0.94	E: -136	F: 66	G: -2
17. CC(=O)N1CCC[C@H]1C(=O)O
  A: .	B: 99	C: i	D: 0.97	E: .	F: .	G: 3
18. COC(=O)c1ccc(CSc2nnc(-c3c[nH]c4ccccc34)n2-c2ccccc2)cc1
  A: 0.0	B: 102	C: i	D: 1.1	E: .	F: .	G: -1
19. C=CCn1c(SCC(=O)NC(=O)c2cccc([N+](=O)[O-])c2)nnc1-c1ccccc1
  A: -1.4	B: 136	C: i	D: 1	E: -8	F: 89	G: 3
20. Cc1cc(C(=O)CSc2nc3ccccc3o2)c(C)n1C1CC1
  A: 0.3	B: 99	C: i	D: 1.1	E: .	F: .	G: 11
21. C=CCNC(=O)c1ccc(C2SCC(=O)N2Cc2ccco2)cc1 (configuration not stated)
  A: .	B: 95	C: i	D: 1	E: 23	F: 126	G: 11
22. Cn1c(=O)c([N+](=O)[O-])c(NC2CCS(=O)(=O)C2)c2ccccc21 (configuration not stated)
  A: .	B: 96	C: i	D: 0.93	E: .	F: .	G: .
23. O=C(O)CSc1nc2sc3c(c2c(=O)n1-c1ccccc1)CCC3
  A: .	B: 99	C: i	D: 0.59	E: .	F: .	G: .
24. Cn1c(CN2CCOCC2)nc2cc(NC(=O)c3ccccc3Cl)ccc21
  A: -0.9	B: 96	C: i	D: 0.83	E: 0	F: 126	G: -2
25. CCOC(=O)CCC(NC(=O)CCC(=O)NC(CCC(=O)OCC)C(=O)OCC)C(=O)OCC (configuration not stated)
  A: -0.7	B: 114	C: i	D: 1.1	E: 25	F: 65	G: 5
26. Cc1ccc(NC(=O)c2cc([N+](=O)[O-])ccc2N2CCCC2)cc1
  A: .	B: 104	C: i	D: 0.96	E: .	F: .	G: -2
27. O=C(/C(=C/c1ccccc1)n1cncn1)c1ccc(Cl)cc1Cl
  A: -0.9	B: 106	C: i	D: 1.1	E: 66	F: 73	G: -4
28. CCN1C(=O)/C(=C/c2ccc(N3CCCC3)cc2)NC1=S
  A: -1.1	B: 78	C: ?	D: .	E: -252	F: 32	G: -3
29. COC(=O)c1cccc2nc3c(C(C)O)cccc3nc12 (configuration not stated)
  A: .	B: 99	C: i	D: 1	E: .	F: .	G: .
30. Cc1ccc(C(C(=O)NC2CCCC2)N(C(=O)CNC(=O)c2cccs2)c2cccnc2)o1 (configuration not stated)
  A: -1.2	B: 107	C: i	D: 1	E: 52	F: 100	G: -4

(list continues)
Keys: A = GALR2 ag; B = RGS16-Gao HTS; C = HSV replic up; D = HSV replic up primary fold; E = INS promoter inh; F = INS promoter inh cell count; G = PKD1 kinase inh
31. COc1ccc(C/C(O)=C(\C#N)c2nc3ccccc3[nH]2)cc1OC
  A: -1.5	B: 109	C: i	D: 0.91	E: .	F: .	G: 13
32. CCOC(=O)c1c(C)sc2c1N(C(=O)CN(CC)CC)c1ccccc1S2
  A: 0.9	B: 108	C: i	D: 0.89	E: -18	F: 136	G: 6
33. Clc1ccc(N=c2ssnc2Cl)nc1
  A: .	B: 82	C: i	D: 0.96	E: 7	F: 104	G: -4
34. COc1cc(C(=O)Nc2nc(-c3ccc(F)cc3)cs2)ccc1OCC(=O)N1CCOCC1
  A: -0.6	B: 103	C: i	D: 0.94	E: 0	F: 104	G: -3
35. CCOc1cc2[nH]c(=S)n(Cc3ccc(C)o3)c(=O)c2cc1OCC
  A: 3.2	B: 114	C: i	D: 1	E: -48	F: 84	G: -1
36. CNC(=O)NC(=O)CSc1ncc(C(F)(F)F)cc1Cl
  A: -3.7	B: 98	C: i	D: 0.88	E: .	F: .	G: -11
37. O=C(C[n+]1ccc(CCSc2ccc(F)cc2)cc1)c1ccccc1
  A: .	B: 102	C: i	D: 1.1	E: .	F: .	G: -5
38. CCn1nnnc1SCC(=O)NCc1ccco1
  A: -2.9	B: 96	C: i	D: 0.98	E: 0	F: 108	G: -1
39. CCCCC(c1nnnn1CC1CCCO1)N1CCN(c2cc(Cl)ccc2C)CC1 (configuration not stated)
  A: -0.1	B: 104	C: i	D: 1	E: .	F: .	G: -15
40. CN1CCN(c2ccc(CNS(=O)(=O)c3cccc(F)c3)cc2)CC1
  A: .	B: 104	C: i	D: 1.1	E: .	F: .	G: .
41. COc1ccc([N+](=O)[O-])cc1N(CC1CO1)S(=O)(=O)c1ccc(C)cc1 (configuration not stated)
  A: .	B: 108	C: i	D: 1	E: 20	F: 152	G: 1
42. CCCOc1ccc(CSc2ncn[nH]2)cc1
  A: -4.4	B: 102	C: .	D: .	E: 7	F: 74	G: -13
43. CC1(C)CCCN(C(=O)c2ccc3c(c2NCCO)C(=O)c2ccccc2C3=O)C1
  A: -1.1	B: 102	C: i	D: 0.68	E: 17	F: 116	G: -6
44. Cc1nnc(N2C(=O)C(O)=C(C(=O)c3ccco3)C2c2ccc(F)cc2)s1 (configuration not stated)
  A: 0.2	B: 80	C: i	D: 0.9	E: .	F: .	G: 15
45. O=C(CSc1nnc(C2CC2)n1-c1ccccc1)NCc1ccco1
  A: -1.2	B: 104	C: i	D: 1	E: 19	F: 91	G: 4

Reformatted tab-delimited: seven of the compounds above.
no.	compound	GALR2 ag	RGS16-Gao HTS	HSV replic up	HSV replic up primary fold	INS promoter inh	INS promoter inh cell count	PKD1 kinase inh
39	CCCCC(c1nnnn1CC1CCCO1)N1CCN(c2cc(Cl)ccc2C)CC1 (configuration not stated)	-0.1	104	i	1	.	.	-15
40	CN1CCN(c2ccc(CNS(=O)(=O)c3cccc(F)c3)cc2)CC1	.	104	i	1.1	.	.	.
41	COc1ccc([N+](=O)[O-])cc1N(CC1CO1)S(=O)(=O)c1ccc(C)cc1 (configuration not stated)	.	108	i	1	20	152	1
42	CCCOc1ccc(CSc2ncn[nH]2)cc1	-4.4	102	.	.	7	74	-13
43	CC1(C)CCCN(C(=O)c2ccc3c(c2NCCO)C(=O)c2ccccc2C3=O)C1	-1.1	102	i	0.68	17	116	-6
44	Cc1nnc(N2C(=O)C(O)=C(C(=O)c3ccco3)C2c2ccc(F)cc2)s1 (configuration not stated)	0.2	80	i	0.9	.	.	15
45	O=C(CSc1nnc(C2CC2)n1-c1ccccc1)NCc1ccco1	-1.2	104	i	1	19	91	4

Next compounds follow.
Keys: A = GALR2 ag; B = RGS16-Gao HTS; C = HSV replic up; D = HSV replic up primary fold; E = INS promoter inh; F = INS promoter inh cell count; G = PKD1 kinase inh
46. C=CCc1cccc(/C=N/NC(=O)CNc2cccc3ccccc23)c1O
  A: -0.1	B: 87	C: i	D: 0.9	E: 7	F: 47	G: -11
47. CC(=O)Nc1nc2ccccc2n1Cc1ccccc1Cl
  A: .	B: 102	C: i	D: 0.75	E: .	F: .	G: .
48. Cc1ccc(S(=O)(=O)N2CCN(C(=O)CSc3nc(N)cc(=O)[nH]3)CC2)c(C)c1
  A: .	B: 99	C: i	D: 1.2	E: 47	F: 137	G: 3
49. CS(=O)(=O)N1CCC(C(=O)c2cccc(Cl)c2)CC1
  A: -0.3	B: 105	C: i	D: 1	E: .	F: .	G: -6
50. COc1ccc(Nc2nc(C(F)(F)F)nc(C)c2C#N)cc1
  A: 0.5	B: 123	C: i	D: 0.97	E: .	F: .	G: -8
51. COc1cc2c(cc1OC)C1=C(C#N)CCC(=O)N1CC2
  A: 0.3	B: 107	C: i	D: 0.94	E: -8	F: 76	G: -5
52. CCOC(=O)c1c(-c2ccc(F)cc2)csc1NC(=O)C1CCCO1 (configuration not stated)
  A: .	B: 93	C: i	D: 0.84	E: .	F: .	G: -9
53. O=C(Nc1nc(-c2cccc3ccccc23)cs1)c1cnccn1
  A: -0.7	B: 101	C: i	D: 1	E: -21	F: 92	G: -6
54. CCn1c(SCC(=O)N2CCN(c3ccccc3)CC2)nc2c(c1=O)SC(C)C2 (configuration not stated)
  A: -1.0	B: 108	C: i	D: 0.9	E: .	F: .	G: -15
55. O=S(=O)(NCc1ccc(F)cc1)c1ccc2c(c1)OCCO2
  A: -0.6	B: 101	C: i	D: 0.98	E: .	F: .	G: -5
56. C=CCSc1nc2ccccc2c(=O)n1C1CCOC(C)(C)C1 (configuration not stated)
  A: .	B: 101	C: i	D: 0.64	E: .	F: .	G: .
57. CCn1c(=O)c2cc(S(=O)(=O)NCc3ccccc3)ccc2n(CC)c1=O
  A: -1.9	B: 103	C: i	D: 0.81	E: -23	F: 115	G: -7
58. Cc1ccc(N2C(=O)[C@@H]3[C@H](C2=O)[C@H]2C=C(C(=O)c4ccccc4)C=CN2[C@@H]3C(=O)c2ccc(Cl)cc2)cc1
  A: -1.1	B: 99	C: i	D: 1.1	E: 19	F: 144	G: -1
59. COc1ccc2[nH]cc(CCNC(=O)C3CCCNC3=O)c2c1 (configuration not stated)
  A: -1.6	B: 104	C: i	D: 0.87	E: .	F: .	G: -3
60. Cc1cc(C(=O)CCl)c(C)n1Cc1ccco1
  A: .	B: 106	C: i	D: 1.2	E: .	F: .	G: 10

New compounds follow
Keys: A = GALR2 ag; B = RGS16-Gao HTS; C = HSV replic up; D = HSV replic up primary fold; E = INS promoter inh; F = INS promoter inh cell count; G = PKD1 kinase inh
61. S=c1[nH]c(-c2ccccc2)cn1/N=C/c1ccc(Br)cc1
  A: .	B: 107	C: i	D: 0.92	E: 21	F: 102	G: -5
62. CCOC(=O)c1cccc(NC(=O)CCNS(=O)(=O)c2ccc3c(c2)CCN3C(=O)CC)c1
  A: -3.4	B: 103	C: i	D: 0.91	E: .	F: .	G: -18
63. Cc1ccc2c(c1)sc[n+]2Cc1ccccc1
  A: -0.4	B: 82	C: i	D: 1.2	E: 61	F: 88	G: -13
64. O=C(NCc1ccco1)Nc1ccc(OC(F)(F)F)cc1
  A: .	B: 98	C: i	D: 0.93	E: .	F: .	G: .
